# TRPML1 agonist: agonists of human TRPML1 channel | Q9GZU1 | TRPML1-expressing cells, Ca2+ dye fluorescence, FDSS; host cell line not named in the record; reference of the full effect not given here | activation, % (test concentration not listed) | 410,000 tested, 0.12% active; in the data active = activation above about 50%; inconclusive = about 30% to 50%; inactive = below about 30%; note: 0% is about no effect; the text of the record puts the active cut at 80%
# Target sequence (Q9GZU1 whole entry, looked up): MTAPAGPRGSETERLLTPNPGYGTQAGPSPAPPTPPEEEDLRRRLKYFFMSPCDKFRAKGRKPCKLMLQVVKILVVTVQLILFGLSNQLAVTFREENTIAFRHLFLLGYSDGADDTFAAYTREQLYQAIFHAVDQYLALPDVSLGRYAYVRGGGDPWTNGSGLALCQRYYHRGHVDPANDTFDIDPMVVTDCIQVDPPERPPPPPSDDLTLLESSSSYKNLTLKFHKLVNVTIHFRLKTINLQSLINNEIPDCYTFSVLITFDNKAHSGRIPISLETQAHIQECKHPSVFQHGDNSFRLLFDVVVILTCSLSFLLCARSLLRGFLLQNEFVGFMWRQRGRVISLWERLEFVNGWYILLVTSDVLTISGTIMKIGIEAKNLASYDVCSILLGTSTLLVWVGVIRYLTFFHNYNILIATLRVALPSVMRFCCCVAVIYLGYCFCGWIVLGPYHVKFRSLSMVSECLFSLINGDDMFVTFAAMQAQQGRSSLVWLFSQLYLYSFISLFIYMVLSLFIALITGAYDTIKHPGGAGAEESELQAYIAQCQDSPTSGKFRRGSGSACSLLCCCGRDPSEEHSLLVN
#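 Cells: TRPML1-DL, 1X Tet inducer, ~16 h at 37 degrees C/5% CO2. Dye: ABD Ca8 no-wash + quencher, 45-90 min RT. Read: 10 s baseline, compound add, 110 s agonist phase; 54-4 EC80 (4uM final), 110 s antagonist phase.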
# Menin MLL FP FL: displaces fluorescein MLL peptide from human menin; 290,000 tested, under 10 active; FP activity change, % at 61.4 µM; Fluorescence polarization, fluorescein-MLL peptide displacement from menin; inconclusive = falling polarisation curve, or a change in total fluorescence; inactive = total fluorescence flat and polarisation flat or rising; no compound was filed as active; the % refers to the polarisation; negative = inhibition;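 note: % of control where 0% means no effect; inhibitors lower the polarisation; unlabelled MLL peptide was the positive control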
# gsp agonist: activates gsp, the McCune-Albright syndrome mutation | gsp mutant cells, cAMP HTRF, 30 min; control for the full effect not named in the record | Potency, µM (titrated, usually from 76.9 µM), inactives show at the highest dose activation (cAMP increase), actives largely listed as activators | 340,000 tested, 0.13% active | AID 624287; active = well fitted activation curve with a large enough effect; inconclusive = small, poorly fitted or top-dose-only effect, or another doubt; inactive = no such curve, though single readings can be large or run the other way; cell line not stated here;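 note: phosphodiesterase inhibitor Ro 20-1724 added with compounds to block cAMP breakdown; potency is the fitted concentration of half-maximal effect; nearly all actives have a fitted effect of over 60% in size; about a fifth of the inactives were tested at one dose only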
#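 Cells stably selected in G418 were plated at 2000/well, grown 16-24 hr, then given compounds in DMSO with the PDE inhibitor […] (300 uM solution added) for 30 min at 37C; cAMP was read by HTRF.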
# TRPML1 inh: blocks the human TRPML1 channel. AID 624415. activity change, negative = inhibition, % (test concentration not listed). 390,000 tested, 0.02% active. Q9GZU1. TRPML1-inducible cells, Ca2+ dye fluorescence, FDSS; stronger effect = lower value; inhibition of EC80 agonist-evoked calcium signal; in the data active means activity change below about -50%; inconclusive means about -30% to -50%; inactive means above about -30%;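 note: stimulus is agonist 54-4 at its EC80 concentration; % is set by controls: 0 for no effect and ±100 for the full control effect; compound concentration not given in the record; the text of the record puts the active cut at -80%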
#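 Calcium fluorescence in TRPML1-DL cells induced overnight with Tet: a 110 s read after compound pin addition, then a 110 s antagonist read after challenge with 54-4 at 4 uM final (EC80).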
# gsp antag: gsp mutant antagonism; AID 624288; 340,000 tested, 0.4% active; Potency, µM (titrated, usually from 76.9 µM), without a hit: at the highest dose activity change, negative = inhibition, hits mostly inhibitors; gsp-mutant cells, cAMP HTRF, 30 min; control for the full effect not named in the record; active = falling curve of any shape with a large fitted effect; inconclusive = falling curve, mostly with a smaller effect; inactive = flat or rising curve; cell line not stated here;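 note: intracellular cAMP measured with PDE inhibitor Ro 20-1724 present during compound exposure; potency is the fitted concentration of half-maximal effect; % is set by controls: 0 for no effect and ±100 for the full control effect; nearly all actives have a fitted effect of over 65% in size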
#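 Cells, 2000/well, grown 16–24 h in DMEM 10% FBS with 0.5 mg/ml G418, then compounds plus […] (300 uM addition stock), 30 min at 37C. cAMP read by HTRF (cAMP-d2 and anti-cAMP antibody-K in lysis buffer) after 30 min RT.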
# ClpP mod: qHTS Assay for Activators of ClpP | ATP-dependent Clp protease proteolytic subunit (Bacillus subtilis (strain 168)), P80244 | purified B. subtilis ClpP, FRET peptide cleavage, 20 min | Potency, µM (highest dose often 57.5 µM), for the others: at the highest dose activity change, negative = active | 340,000 tested, 1.9% active; active = well fitted falling curve with a large enough effect; inconclusive = small, poorly fitted or top-dose-only effect; inactive = no such curve, though single readings can be large or run the other way; note: potency is the fitted concentration of half-maximal effect; the source files actives as falling curves though it sought activators and does not explain the sign; nearly all actives have a fitted effect of over 65% in size; many hits overshoot -100%
# Target sequence (P80244 whole entry, looked up): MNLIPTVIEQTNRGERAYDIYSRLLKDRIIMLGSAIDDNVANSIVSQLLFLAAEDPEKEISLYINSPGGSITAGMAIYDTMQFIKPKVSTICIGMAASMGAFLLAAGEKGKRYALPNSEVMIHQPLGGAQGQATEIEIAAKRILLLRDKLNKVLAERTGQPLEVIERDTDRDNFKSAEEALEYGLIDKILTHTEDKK
#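 FRET quenching reversal measured ClpP activation: 10 microg/mL B. subtilis ClpP at pH 8 with the FRET-FV decapeptide, read at 430 nm after 320 nm excitation. The 20-min minus 0-min signal was scaled between DMSO/no-enzyme wells and ADEP (5.8 microM final).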
# Numbers without * were called inactive; ? = inconclusive; / = not tested or not shown; & = joins results of further samples; [ ] = another dose, or the depositor's remark. Compounds were not picked by outcome. Share with any hit: about 2.1%.
SMILES,TRPML1 agonist,Menin MLL FP FL,gsp agonist,TRPML1 inh,gsp antag,ClpP mod
COCC(C)NC(C(=O)Nc1cccc(C(C)=O)c1)c1ccccc1 (stereo not drawn),-0.4,3.3,-5%[15.4 µM],4,5%,/
Cc1ccc(NC(=S)N(CCN(C)C)Cc2cc3cc(C)ccc3[nH]c2=O)cc1,0.6,-2.2,10%[15.4 µM],32,3%,-0.3%
COc1cc(NC(=O)c2cc(=O)[nH]c3ccc(S(=O)(=O)N4CCOCC4)cc23)cc(OC)c1,-0.7,/,20%,-10,14%,-3.0%
CN(CC(=O)Nc1ccccc1Cl)C(=O)c1ccc(N2C(=O)CCC2=O)cc1,-0.7,/,?,15,1%,-1.4%
Cc1ccc(C)c(N2CCN(C(=O)Nc3ccc4c(c3)N(C)C(=O)CS4)CC2)c1,0.5,-1.7,16%,23,40µM*,0.9%
CC(NC(=O)C(CC(=O)OC(C)(C)C)NC(=O)OC(C)(C)C)C(N)=O (stereo not drawn),-0.2,2.3,12%,-1,10%,1.1%
CCOc1ccc(-c2cc(CCCC(=O)NCCC(C)C)no2)cc1,-0.6,0.1,-76%[inhibitor],2,-3%,/
COc1ccc(CCN(C)C(=O)Cc2ccc(-c3ccccc3)cc2)cc1OC,2.8,1.7,19%,17,?,/
Nn1cnc2sc3c(c2c1=O)CCC3,0.1,1.4,26%,-5,6%,-0.8%
O=C(NC1CCCCC1)C(c1ccncc1)N(CC1CCCO1)C(=O)C(F)(F)F (stereo not drawn),0.0,1.5,?,-14,4%,-0.9%
COc1ccc(CCC(=O)NCCOc2ccccc2Cl)cc1,-0.2,/,-35%,3,7%,1.0%
CCc1cc2cccc(C)c2nc1SCC(=O)N1CCN(C(=O)c2ccco2)CC1,2.5,3.9,-56%[inhibitor],15,?,-1.9%
COc1ccc(N=CC2=C(O)CCCC2=O)cc1,1.1,1.4,5%,-14,6%,-0.6%
Cc1nn(CC(=O)OCC(=O)c2ccc(OC(F)F)cc2)c(C)c1[N+](=O)[O-],-0.1,/,-32%[inhibitor],19,-19%,-0.7%
CCC1(CC)C(=O)NC(=S)N=C1N,-0.4,/,22%,-2,-10%,/
CCCc1cc(C(=O)Nc2c(C)nn(Cc3c(Cl)cccc3Cl)c2C)no1,-1.2,/,/,38,/,0.7%
O=C(c1ccc2c(c1)N(Cc1cccc(F)c1)C(=O)c1ccccc1S2)N1CCC2(CC1)OCCO2,4.2,/,/,16,/,1.2%
CC(C)(C)C(C(=O)n1cccc1C#N)c1ccccc1 (stereo not drawn),4.2,/,10%,0,-14%,0.3%
CCN(C(=O)c1ccc2c(c1)N(Cc1cccc(Cl)c1)C(=O)c1ccccc1S2=O)c1ccccc1 (stereo not drawn),0.5,/,/,3,/,-6.3%
Cc1cccc(C)c1OC(=O)CSc1nnc(-c2ccccc2)o1,-0.3,2.2,-17%,-7,4%,0.8%
CC(C)CN(CC(C)C)c1nnc(NC(=O)Nc2cccc(C(F)(F)F)c2)s1,-0.4,/,/,-12,/,0.7%
Cc1ccc(Cn2nc3c(cc2=O)CCc2ccccc2-3)cc1,2.6,-1.7,-38%[inhibitor],7,6%,-8.7%
O=C(Nc1cccnc1)c1cc(-c2ccc3c(c2)OCO3)on1,1.2,2.5,9%,26,3%,-18%
O=C(c1cnc2c(c1)COc1ccc(Cl)cc1-2)c1ccccc1O,1.6&1.5,0.1,-4%,76&83,-11%,?
C[C@@H]1CN([C@@H](C)CO)C(=O)Cc2cc(NC(=O)Nc3ccc(F)cc3)ccc2O[C@@H]1CN(C)Cc1ccc(Cl)c(Cl)c1,-0.6,/,11%,-14,-16%,-2.9%
# (cont.)
SMILES,TRPML1 agonist,Menin MLL FP FL,gsp agonist,TRPML1 inh,gsp antag,ClpP mod
O=C(c1cccc(NS(=O)(=O)c2ccc(F)c(F)c2)c1)N1CCCCC1,-0.2,/,-49%[inhibitor],32,8%,0.4%
CCOC(=O)C(Cc1cc(N)c(Oc2ccc(OC)cc2)c(N)c1)NC(C)=O (stereo not drawn),0.1,/,0%[15.4 µM],3,-1%,1.7%
COCCNC(=O)CSc1nc(-c2ccccc2C)nc2c1c(=O)n(C)c(=O)n2C,-0.8,/,/,7,/,2.2%
CN1CCCC(OC(=O)/C(C#N)=C/c2ccccc2)C1 (stereo not drawn),0.3,0.1,-39%[inhibitor],-3,13%,-1.0%
COc1cc2ccc(=O)oc2c(O)c1OCC=C(C)C,-0.2,1.6&-6.8,10%,10,-4%,-1.3%
Cc1cc(C(=O)Nc2ccc(F)c(Cl)c2)on1,1.1,3.9,4%[15.4 µM],9,11%,/
COc1ccc(CN2C(=O)[C@@H]3C(c4ccc(F)cc4)=NO[C@@H]3C2=O)cc1,-0.1,-2.8,-12%,9,1%,-4.4%
Cc1ccccc1Nc1nc(N)nc(COC(=O)C(NC(=O)c2ccco2)C(C)C)n1 (stereo not drawn),-0.5,-1.1,-51%[inhibitor],-12,-14%,0.1%
CN=C1c2ccccc2CN1c1cccc(C(=O)OC)c1,-0.2,10,-3%,15,0%,-7.0%
CC(OCC(O)CN1CCCCC1CCO)c1ccc(Cl)cc1 (stereo not drawn),-0.6,-1.9,1%[15.4 µM],11,6%,/
COc1ccc(C(=O)Cc2cc(OC)c(OC)cc2C(=O)c2ccccc2F)cc1OC,1.0,-7.7,20%,0,-3%,-5.0%
CCOC(=O)N1CCc2c(sc(NCc3sccc3C)c2C(=O)Nc2cc(Cl)ccc2OC)C1,2.8,/,/,7,/,-4.6%
CC(=O)c1ccc(NC(=O)c2cnsn2)cc1,-0.2,-4.6,-2%[15.4 µM],-5,-17%,2.5%
COc1cccc(CNC(=O)Cn2ncc3c4ccccc4n(Cc4ccccc4)c3c2=O)c1,3.3,/,/,31,/,?
Fc1ccccc1N1CCN(c2ncnc3c2nc2n3CCCCC2)CC1,-1.1,/,/,-4,/,-0.5%
O=c1[nH]cnc2c1c(-c1ccccc1)cn2-c1ccc(F)cc1,2.3,2.3,2%[15.4 µM],5,-14%,-3.1%
COc1ccc2oc(-c3ccc(C)c(NC(=O)c4cccnc4)c3)nc2c1,0.2,/,/,-3,/,3.9%
COc1ccc(C(Nc2ccccn2)c2ccc3ccc(C)nc3c2O)cc1C (stereo not drawn),1.2,/,/,-3,/,-2.6%
COc1ccc(C2SCC(=O)N2c2nc3ccccc3s2)cc1 (stereo not drawn),0.8,1.7,-24%,-18,-22%,-1.5%
Cc1cc(NC(=O)C(C)SCC(=O)Nc2ccccc2C(C)(C)C)no1 (stereo not drawn),-0.2,/,6%,7,8%,-0.5%
CCOc1ccc(NCC(=O)Nc2ccc(C)cc2C)cc1,0.6,3.9,10%,-15,-6%,-0.1%
Cc1cccc(C(C)C)c1NC(=O)C1CN(S(=O)(=O)c2ccccc2)CCN1S(=O)(=O)c1ccccc1 (stereo not drawn),0.4,5.2,?,-10,-14%,0.7%
CSCC[C@H](NC(=O)OC(C)(C)C)C(=O)NCC1CCC(C(=O)N[C@@H](Cc2ccccc2)C(=O)O)CC1 (stereo partly drawn),-0.5,0.7,-2%[15.4 µM],-3,5%,-1.1%
COc1cccc(-n2c(-c3ccco3)nc3c(cnn3-c3ccccc3C)c2=O)c1,0.0,/,/,9,/,-1.5%
O=C(c1ccccc1)c1nc2ccccc2[nH]c1=O,-0.1,-0.4,6%,-5,-1%,-5.6%
# New compounds follow:
SMILES,TRPML1 agonist,Menin MLL FP FL,gsp agonist,TRPML1 inh,gsp antag,ClpP mod
COc1ccc(C2NS(=O)(=O)OCC2C)cc1 (stereo not drawn),-0.6,3.1,/,4,9%,-1.3%
Cc1c(Cl)cnc(NC(=O)COC(=O)c2ccc(S(=O)(=O)NCc3ccco3)cc2)c1Cl,2.4,3.2,5%,25,-5%,3.0%
C=CCN(c1ccc(F)cc1)S(=O)(=O)c1cc(C(=O)NC2CC2)ccc1Cl,0.5,/,3%,-10,/,1.3%
COc1ccc(CN(C)S(=O)(=O)c2c(C)noc2C)cc1OC,1.2,/,-17%,-14,-5%,-0.5%
C/C(=N\O)C1(C)N(O)C(C)(C)C(c2ccco2)=[N+]1[O-] (stereo not drawn),-0.5,-0.1,-9%[15.4 µM],51,-6%,/
CCCCN(CCCC)CCCNC(=O)CN1C(=O)COc2ccc(S(=O)(=O)N3CCC(C)CC3)cc21,-0.3,-11,-16%,-9,12%,-2.3%
CCc1ccccc1NS(=O)(=O)c1ccc2[nH]cc(C(=O)N(CC)Cc3ccccc3)c(=O)c2c1,1.3,/,/,-10,/,4.6%
CS(=O)(=O)N(Cc1ccc(C(=O)Nc2ccccc2Sc2ccccc2)cc1)c1ccccc1,2.4,1.6,-23%,2,-8%,36%
CCOC(=O)c1c(C)oc2ccc(N(C(C)=O)S(=O)(=O)c3c(C)cc(C)cc3C)cc12,0.8,/,/,-18,/,-2.9%
N#CC1=C2N=C(N)c3ccccc3N2C2=C(C(=O)CCC2)C1c1ccc(F)cc1 (stereo not drawn),-0.1,4.6,?,-8,-17%,0.1%
CCc1ccc(C(=O)c2cn(CC(=O)Nc3ccc(OC)c(Cl)c3)c3nc(C)ccc3c2=O)cc1,1.4,/,/,-1,/,3.6%
COc1ccccc1C(=O)NC(=O)Nc1ccc(-n2nc(C(F)(F)F)cc2C(F)(F)F)cc1,0.1,/,/,4,/,0.2%
CC1CCN(CC(=O)N2CC(=O)Nc3ccccc32)CC1,-0.6,-0.2,10%,-2,6%,1.6%
Cn1cc(-c2nc3ccccc3[nH]2)c2ccccc21,-0.7,0.8,2%,-1,-9%,28µM*
CN(C)CC1C2CCC(C2)C1O (stereo not drawn),-1.1,/,-1%,76,10%,/
COc1ccc(NC(=S)N/N=C/c2cccn2Cc2ccccc2F)cc1,1.4,-3.5,2%[15.4 µM],18,-11%,/
Cc1ccc([N+](=O)[O-])cc1NC(=O)Cc1ccc(F)cc1,0.7,0.8,-26%[15.4 µM],1,13%,-0.2%
CCOc1ccccc1NC(=O)/C=C/c1ccccc1[N+](=O)[O-],0.8,5.4,8%,-9,-14%,-0.2%
COc1ccc(/C=C/C(=O)OCC(=O)Nc2nnc(-c3ccccc3)o2)c(OC)c1,-0.6,/,0%,-7,/,-4.6%
CCC(=O)Nc1ccc(C(=O)N/N=C/c2ccc([N+](=O)[O-])cc2)cc1,-0.8,2.6,2%,-4,-8%,2.6%
CCOC(=O)C(NC(=O)CC)(Nc1cc(C)on1)C(F)(F)F (stereo not drawn),-0.3,0.7,8%,-3,11%,1.8%
O=C(Nc1ccc(C(=O)N2CCN(c3cccc(Cl)c3)CC2)cc1)c1nsc2ccccc12,0.6,/,/,-2,/,-5.8%

# Screening data deposited in PubChem BioAssay by National Center for Advancing Translational Sciences (NCATS).
